# CDC25B-CDK2 inh: human CDC25B-CDK2/CyclinA binding inhibition; hit rate 0.72% among 94,000; z-score (concentration not given with the values); P30305+P24941; HTRF CDC25B-CDK2/CyclinA binding, anti-His/anti-Flag; stronger effect = higher value;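 further: score is relative to mean and SD of negative controls; strong numbers were not always called active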
# TAR Tat displ: HIV-1 TAR-Tat binding disruption; HIV-1 TAR RNA, Tat peptide displacement FRET; stronger effect = higher value; z-score (test concentration not listed); hit rate 0.6% among 100,000; AID 1259389;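 further: score is relative to mean and SD of negative controls; some compounds called inactive have numbers as strong as hits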
# * hit, by the source's call; nt = no result given.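 How the source made its calls: active means z-score from 3 up in half or more of its runs; inactive means the rest.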
SMILES,CDC25B-CDK2 inh,TAR Tat displ
O=S(=O)(Nc1ccc(-c2cc3ccccc3[nH]2)cc1)c1cnc[nH]1,nt,1.5
O=C(O)c1ccc([N+](=O)[O-])c(CS(=O)(=O)c2ccccc2)c1,-2,nt
O=C(O[C@@H]1Cc2c(O)cc(O)cc2O[C@@H]1c1cc(O)c(=O)c2c(O)c(O)cc([C@H]3Oc4cc(O)cc(O)c4C[C@H]3OC(=O)c3cc(O)c(O)c(O)c3)c2c1)c1cc(O)c(O)c(O)c1,nt,26*
COc1ccc(S(=O)(=O)c2cnc3cc4c(cc3c2N2CCC(C)CC2)OCCO4)cc1,-3.3,-0.67
COCCn1c(CN2CCc3ccccc3C2)nc2c1c(=O)n(C)c(=O)n2C,-0.85,nt
COC(=O)CC(=O)Nc1sc2c(c1C#N)CCCC2,-1.7,0.41
CCc1cccc(-n2nnc(-c3nc(-c4ccccc4C)no3)c2N)c1,nt,0.54
Cc1nc2ccccc2c2c1C(=O)N(c1cccc(C(=O)OCC(=O)C(C)(C)C)c1)C2=O,-0.72,2.1
CCN(CC)C(=S)SC12CC3CC(CC(CC)(C3)C1)C2,-0.66,nt
CC1(C)CC(OC(=O)CC(=O)OC2CC(C)(C)NC(C)(C)C2)CC(C)(C)N1,0.2,nt
Cc1cc(NCc2c(CO)cnc(C)c2O)ccc1Br,nt,0.57
COc1ccc(O)c(C2=NN3C(C2)c2cccc(OC)c2OC3c2cc(OC)ccc2OC)c1 (configuration not stated),1.3,-0.28
CCOC(=O)c1c(C)n(CC)c2ccc(OC(=O)COc3ccccc3F)cc12,0.15,nt
COc1nc(C)ccc1-c1noc(-c2ccc(F)cc2)n1,-2.3,1.9
Cc1ccc2nc(NCc3ccc(F)cc3)c3nnnn3c2c1,-1.5,1.6
CCOC(=O)N1CCC(NCc2ccco2)CC1,-1.2,-1
COc1cc2c(cc1NC(=O)c1cccs1)n(C)c(=O)n2C,-1.8,1.3
COc1cc(OC)cc(-c2cc(N)n(S(=O)(=O)c3ccc(C)cc3)n2)c1,0.27,1.7
COc1ccc(S(=O)(=O)c2cnc3cc4c(cc3c2N2CCCC(C)C2)OCCO4)cc1 (configuration not stated),-3.4,1.7
O=c1[nH]c(SCCCCOc2ccc(Cl)cc2)nc2c1CCCC2,-0.05,1.6

# Complete entries, quoted from the list:
# Listed for O=c1[nH]c(SCCCCOc2ccc(Cl)cc2)nc2c1CCCC2 → CDC25B-CDK2 inh: -0.05; TAR Tat displ: 1.6
# Listed for COCCn1c(CN2CCc3ccccc3C2)nc2c1c(=O)n(C)c(=O)n2C → CDC25B-CDK2 inh: -0.85; TAR Tat displ: nt

# The list goes on:
SMILES,CDC25B-CDK2 inh,TAR Tat displ
COc1ccc(Cl)cc1NC(=O)Nc1ccc(N(C)C)cc1,-1.1,nt
CCN(CC)c1nc(NCc2ccc(OC)cc2)c2cnn(C)c2n1,nt,1.5
Cc1cc(C)cc(OCC(O)CN2CCC(CN3C(=O)c4cccc5cccc(c45)C3=O)CC2)c1 (configuration not stated),0.29,nt
COc1cc(OC)c(NC(=O)NCCc2csc3c2CCCC3)cc1Cl,nt,2
Cn1c2c(c(=O)n(C)c1=O)CN(CCN1CCCCC1)CN2,-1.9,0.26
CCCCCOC(=O)C1C2C=CC3(CN(c4ccccc4C)C(=O)C13)O2 (configuration not stated),0.35,-0.59
Fc1ccccc1-c1nc(=S)c2c([nH]1)Oc1ccccc1C2,-1.9,-1.8
CC(=O)n1c2ccc(F)cc2c2nc3ccccc3nc21,-0.36,nt
CCCn1cnc2nc(CSc3ccccc3NC(=O)C(C)C)cc(=O)n21,-2.8,0.26
COc1ccc(C(=O)N2c3nc(-c4ccco4)nn3C3(CCCCC3)[C@@H]3CCCC[C@@H]32)cc1OC,-0.16,-0.08
Cc1ccc(-n2nc(C)c3c2OC(N)=C(C#N)C3c2cccs2)cc1 (configuration not stated),-2.8,-0.78
COc1ccccc1-c1cc2nc(C)cc(NC3CCCC3)n2n1,-0.93,0.83
O=C(c1sccc1Cl)N1CCCN(c2nccc(C(F)(F)F)n2)CC1,-0.66,nt
CC1Cc2cc(S(=O)(=O)N3CCCC(C(=O)NC4CCCCC4)C3)ccc2N1C(=O)C1CC1 (configuration not stated),nt,0.48
Cc1cc2c(NC(=O)CSCC(=O)O)cccc2nn1,-1.3,nt
O=C(CCCc1c[nH]c2ccccc12)N1CCN(c2ccc(F)cc2)CC1,nt,0.6
c1ccc2c(N3CCOCC3)nnc(N3CCOCC3)c2c1,0.16,0.62
COc1ccc(-c2nc3ccccc3o2)cc1NC(=O)c1ccc(Cl)c([N+](=O)[O-])c1,0.83,nt
N#Cc1c(NC(=O)c2nn(-c3ccc(F)cc3)ccc2=O)sc2c1CCCC2,-0.14,0.64
O=C(CCS(=O)(=O)c1ccc2c(c1)CCN2C(=O)C1CC1)N1CCN(c2ccccc2)CC1,nt,0.16

# In a second layout: 4 of the compounds above
# Results follow in this order: CDC25B-CDK2 inh | TAR Tat displ
O=C(CCCc1c[nH]c2ccccc12)N1CCN(c2ccc(F)cc2)CC1
    nt | 0.6
CCN(CC)c1nc(NCc2ccc(OC)cc2)c2cnn(C)c2n1
    nt | 1.5
COc1ccc(-c2nc3ccccc3o2)cc1NC(=O)c1ccc(Cl)c([N+](=O)[O-])c1
    0.83 | nt
N#Cc1c(NC(=O)c2nn(-c3ccc(F)cc3)ccc2=O)sc2c1CCCC2
    -0.14 | 0.64

# Part of the list above, reformatted.
smiles | CDC25B-CDK2 inh | TAR Tat displ
COc1ccc(Cl)cc1NC(=O)Nc1ccc(N(C)C)cc1 | -1.1 | nt
CCN(CC)c1nc(NCc2ccc(OC)cc2)c2cnn(C)c2n1 | nt | 1.5
Cc1cc(C)cc(OCC(O)CN2CCC(CN3C(=O)c4cccc5cccc(c45)C3=O)CC2)c1 (configuration not stated) | 0.29 | nt
COc1cc(OC)c(NC(=O)NCCc2csc3c2CCCC3)cc1Cl | nt | 2
Cn1c2c(c(=O)n(C)c1=O)CN(CCN1CCCCC1)CN2 | -1.9 | 0.26
CCCCCOC(=O)C1C2C=CC3(CN(c4ccccc4C)C(=O)C13)O2 (configuration not stated) | 0.35 | -0.59
Fc1ccccc1-c1nc(=S)c2c([nH]1)Oc1ccccc1C2 | -1.9 | -1.8

# (continued)
SMILES,CDC25B-CDK2 inh,TAR Tat displ
Oc1ccc(Br)cc1-c1nc2cnccn2c1Nc1ccccc1,-0.49,1.5
CCc1cc2c3c([nH]c2cc1S(=O)(=O)Nc1ccc2c(c1)OCCO2)CC(C)(C)CC3=O,nt,1.1
CC1=C(OC(=O)c2cccs2)C(=O)CC1,-0.9,nt
Cc1ccc(-c2nn3c(=O)c(NC(=O)c4ccccc4C)cnc3o2)cc1,nt,1.9
O=C(CCCc1ccccc1)N1N=C(c2ccccc2)CC1(O)C(F)(F)F (configuration not stated),-1.6,nt
CNc1nc(NC(C)C)c2cnn(C)c2n1,nt,0.54
Cc1cc(NC(=O)Nc2cccc(S(N)(=O)=O)c2)c(C(F)(F)F)o1,-1.7,nt
NC(=S)c1ccc(C2SCCS2)cc1,-2.6,nt
Cc1ccc(S(=O)(=O)N(CCS(=O)(=O)N2CCNCC2)C(C)C)cc1,nt,1.4
Cc1cccc(NS(=O)(=O)c2cn(C)c(C)n2)c1,nt,0.96
CN(CCCNC(=O)c1ccc(N2CCSc3ncccc32)s1)C1CCCCC1,nt,0.13
C=CCOC(=O)C1=C(C)NC2=C(C(=O)CCC2)C1c1ccccc1OCCC (configuration not stated),-0.48,0.55
Cc1cc(C)cc(NC(=O)CSc2nccn2C2CCCC2)c1,nt,0.83
O=C(c1ccc2c(c1)OCO2)N1CCC(CN2C(=O)c3cccc4cccc(c34)C2=O)CC1,-5.7,nt
Cc1ccc(C(=O)N2N=C(c3ccccc3)CC2c2ccccc2)cc1 (configuration not stated),-0.61,nt
O=c1nc2c(-c3ccccc3F)n[nH]n2c2ccccc12,-0.31,2.6
O=C(CSc1nc2ccccc2s1)N=Nc1c(O)n(CN2CCCC2)c2ccccc12,-5.6,nt
Cc1ccccc1-c1noc(-c2nnn(-c3ccccc3F)c2N)n1,nt,0.45
COCC1=C(C(=O)OC(C)OC(=O)OC(C)C)N2C(=O)[C@@H](NC(=O)C(=NOC)c3csc(N)n3)[C@H]2SC1 (some centres not stated),nt,0.18
COc1ccc(C(=O)NNC(=O)c2c(OC)cc(C(F)(F)F)cc2C(F)(F)F)cc1,-1.6,nt
Cc1cc(=O)nc2c3ccccc3n(C(C)C(=O)NC3CCCCC3)n12 (configuration not stated),0.41,0.86
Cc1noc(C)c1NC(=O)NCC1CCN(S(=O)(=O)c2ccccc2)CC1,-1.3,nt
COc1ccc(O)c(C2Nc3ccccc3NC3=C2C(=O)CC(C)(C)C3)c1 (configuration not stated),-0.74,nt
Cc1cccc(-c2cc(Nc3ccc(SC#N)cc3)nc(C)n2)c1,-1.5,-1
Cc1ccc(S(=O)(=O)c2nnn(-c3ccccc3Br)c2C)cc1,0.29,4.4
O=C(NC1CCCCC1)c1cn2c3c(ccc(Cl)c3c1=O)OCC2,nt,2.2
COc1ccc(C2C(C#N)=C(N)Oc3ccc4ccccc4c32)cc1OC (configuration not stated),-1.9,nt
COc1ccc(OC)c(CN2CCN(C3CCCCC3)CC2)c1,0.17,0.55
Cn1c(=O)n(C2CCCCC2)c(=O)c2c3c(sc21)COC(C)(C)C3,-0.68,1.6
CN(C)C(=O)c1cc(-c2ccccc2)c(C(F)(F)F)s1,0.24,nt
Cc1nc2c3cccnc3nn2c(C)c1CCC(=O)NCCc1ccco1,-0.94,-1.2
COc1c(C(C)=O)c(O)c(OC)c2occc12,-2,nt
CCOC(=O)c1nc(Nc2ccccc2Cl)c2ccccc2n1,nt,0.51
C1CCN(CC2COC3(CCCC3)O2)C1 (configuration not stated),-0.08,nt
O=C(Nc1cccc(Cl)c1)c1cnn(-c2cccc(F)c2)c1-n1cccc1,nt,1.2
CC[n+]1c(/C=C/c2ccc3c(c2)OCO3)sc2ccc(OC)cc21,-0.46,-3
CN1CCN(C(=O)c2ccc3cccc(O)c3n2)CC1,nt,1.6
Cc1ccc(-c2nnc3sc(-c4ccccn4)nn23)cc1,-2.5,1.2
CCN1CCCC1CNC(=O)Cn1c(=O)c2cccn2c2ccccc21 (configuration not stated),nt,1.5
COC(=O)c1cc(C(=O)Nc2ccccc2C(=O)OC)cc([N+](=O)[O-])c1,-1.1,nt
COC(=O)Cc1ccccc1Sc1ccccc1[N+](=O)[O-],-0.83,nt
Cn1nc(C(=O)NC2CC2)c2c1-c1ccccc1SC2,-1.2,1.5
COc1ccc(Cl)cc1NS(=O)(=O)c1cc(Br)cnc1N,-1.6,0.61
Cc1ccccc1-c1noc(CNS(=O)(=O)c2ccccc2)n1,1.1,1.6
CC1CCCCN1C(=O)CSc1nnc(-c2cc3ccccc3n2C)o1 (configuration not stated),-0.35,0.86
Cc1ccc2nc(NCc3ccc(C(=O)O)cc3)c3nncn3c2c1,-0.56,nt
O=C(O)CNc1nc2ccccc2n2cnnc12,0.43,0.35
O=C1CC(c2cccc(O)c2)c2cnn(-c3nc4ccccc4s3)c2N1 (configuration not stated),nt,-0.1
CCCSc1ccc2nc(NC(C)=O)[nH]c2c1,-0.3,nt
COc1ccc(/C(O)=C2\C(=O)C(=O)N(Cc3cccnc3)C2c2ccccc2F)cc1 (configuration not stated),-0.25,0.26
Cc1ccc(CNC(=O)c2cnc3sc(N4CCCC4)nn3c2=O)o1,nt,1.2
CCOC(=O)C1=C(C)NC2=C(C(=O)CC(C)(C)C2)C1c1ccc(C)cc1 (configuration not stated),-0.64,-0.25
CCCNC(=O)Nc1n[nH]c(Nc2ccc(Cl)cc2)n1,-1.4,nt
CC1(C)Cc2nc3oc4c(SCc5ccc(Cl)cc5)ncnc4c3cc2CO1,nt,0.33
O=C(NC(c1ccccc1)c1ccc2cccnc2c1O)c1ccccc1 (configuration not stated),-0.79,-0.73
c1ccc(C2CC3CC(c4ccccc4)N2O3)cc1 (configuration not stated),-1.8,-0.7
CC(=O)N1N=C(c2ccc(Cl)cc2)OC1c1ccncc1 (configuration not stated),nt,0.36
CC(Oc1ccccc1)c1nc(-c2ccc(S(=O)(=O)N3CCCC3)cc2)no1 (configuration not stated),nt,0.95
Cc1ccc(Cl)cc1NS(=O)(=O)c1cc(-c2cnc(C3CC3)o2)ccc1C,nt,0.2
O=C(COc1ccccc1)NCC(c1cccs1)S(=O)(=O)c1cccs1 (configuration not stated),nt,0.09
# The list goes on:
SMILES,CDC25B-CDK2 inh,TAR Tat displ
CCc1ccc(C2N(c3ccc(F)cc3)C(=O)C3CCCN32)cc1 (configuration not stated),-1.3,-0.89
COc1ccc(-n2nnc(-c3nc(-c4ccc5c(c4)OCO5)no3)c2C)cc1OC,nt,0.39
O=C(Nc1ccc(Sc2nc3ccccc3n3nnnc23)cc1)c1ccco1,-5.8,-0.25
Cc1ccc(CSc2nc3cccnc3n2Cc2ccc(C(=O)O)cc2)cc1,-0.45,3.1
CCOC(=O)c1c(-c2ccccc2)c(-c2ccccc2)n[nH]c1=O,-1.6,nt
CCCc1nc(SC)ncc1C(=O)Nc1ccc2c(c1)OCCO2,nt,-0.04
O=S(=O)(NCCc1csc2nc(-c3ccccc3F)nn12)c1cccc(F)c1,nt,0.89
O=C1c2ccccc2S(=O)(=O)N1CC(O)COc1ccc(Cl)cc1 (configuration not stated),3,nt
CCC(C)N(CCNS(=O)(=O)c1ccc(-c2ccc(=O)[nH]n2)s1)Cc1cccs1 (configuration not stated),nt,0.49
O=C(NCCCN1CCc2ccccc2C1)C1CCN(c2nnc(-n3cccc3)s2)CC1,0.22,nt
Nc1ncnc2nc(SCC(=O)NCc3ccco3)[nH]c12,-1.3,0.52
CCC(CC)C1C(C#N)=C(N)OC2=C1C(=O)CC(C)(C)C2 (configuration not stated),0.05,nt
Cc1cc(-c2ccc(=O)[nH]n2)cc(S(=O)(=O)N2CCCC2)c1C,nt,2.2
CCS(=O)(=O)N1CCN(Cc2noc(CCC(=O)N3CCCC3)n2)CC1,nt,0.27
Cc1ccc(OCCOCCSc2nc(-c3cccs3)nc3cc(=O)[nH]n23)cc1,nt,0.95

# Bioassay records as filed in PubChem.
